Screening results: PubChem, Fisher Drug Discovery Resource Center
NPYLR7 ag: agonists of mosquito NPYLR7 receptor, primary screen, cell-based, Aedes aegypti, calcium fluorescence, mosquito biting behavior; Aedes aegypti neuropeptide Y-like receptor 7 (NPYLR7); HEK293T NPYLR7/Galpha15, GCaMP6s calcium fluorescence; activation, % at 10 µM; hit rate 0.15% among 270,000; in the data active means activation above about 40%;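 further: 0% = vehicle and 100% = reference agonist at the receptor; some compounds past the cut are filed as inactive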
NPYLR7 ag max-min: recorded beside NPYLR7 ag, whose call it bears; activation, %; measured here: Max-Min RFU normalised activation; some inactives read as strong as hits;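 span of the calcium signal over five minutes; 0% = vehicle and 100% = native peptide agonist; compound fluorescence can raise it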
The depositor's hits bear a star. Some of the compounds tested (hit frequency here may not be typical).

For CCN(C/C=C/c1ccccc1)C(=O)c1ccc(Cl)cc1OC the results were NPYLR7 ag -2.2 and NPYLR7 ag max-min -8.2.
O=S(=O)(NCCNc1cc(-n2cccn2)ncn1)c1cccs1 was read as NPYLR7 ag -7.4 and NPYLR7 ag max-min -13.4.
Cc1ccc(Cl)cc1NC(=O)Cn1nc2c3c4c(sc3ncn2c1=O)CCCCC4 was read as NPYLR7 ag -2.7 and NPYLR7 ag max-min -3.2.
Screening CSc1ccccc1NC(=O)C1CCCN(C(C)C)CC1 (stereo not given) returned NPYLR7 ag 0.0 and NPYLR7 ag max-min 0.3.
For Cc1cccc2c1N(C(=O)c1ccc(Cl)c(S(=O)(=O)N3CCCC3)c1)CCC2 the results were NPYLR7 ag -1.7 and NPYLR7 ag max-min -1.4.
For Cc1noc(-c2ccco2)c1C(=O)N1CCCC(CCc2ccc(C(C)(C)C)cc2)C1 (stereo not given) the results were NPYLR7 ag 14.3 and NPYLR7 ag max-min 9.6.
`CC1CC(C)CN(Cc2nc3c(c(=O)n(C)c(=O)n3C)n2CCCc2ccccc2)C1` (stereo not given) gave NPYLR7 ag 5.6 and NPYLR7 ag max-min 4.6.
For CCCCN(CC(=O)N(CCc1ccc(OC)c(OC)c1)Cc1ccc(C)s1)C(=O)c1ccc(-c2ccccc2)cc1 the results were NPYLR7 ag 20.9 and NPYLR7 ag max-min 26.9.
Screening CC(c1ccccc1)n1c(=O)c(C(=O)N2CCOCC2)nn(-c2ccccc2)c1=O (stereo not given) returned NPYLR7 ag 4.1 and NPYLR7 ag max-min 9.8.
For COc1ccccc1N1C(=O)CSC1c1cccc(NC(=O)c2ccc(Cl)cc2)c1 (stereo not given) the results were NPYLR7 ag 10.8 and NPYLR7 ag max-min 8.0.
For O=C1CC(c2ccco2)Cc2c1cnn2-c1nc2ccccc2s1 (stereo not given) the results were NPYLR7 ag 8.7 and NPYLR7 ag max-min 9.1.
`Nc1c(Cl)ncnc1NCCO` gave NPYLR7 ag -13.1 and NPYLR7 ag max-min -8.0.
`Cc1ccc(-c2csc(-n3[nH]c(C)c(N=Nc4ccc(F)cc4)c3=O)n2)cc1` gave NPYLR7 ag 2.5 and NPYLR7 ag max-min 4.1.
`CCOC(=O)N1CCN(c2cc(Oc3ccc(F)cc3Cl)ncn2)CC1` gave NPYLR7 ag -8.6 and NPYLR7 ag max-min -1.5.
`COc1ccc(CCN(C)c2nc(SCc3cccc(C(=O)NCC4CCCO4)c3)nc(C)c2C)cc1OC` (stereo not given) gave NPYLR7 ag 3.6 and NPYLR7 ag max-min 11.7.
For CCC(C)C(=O)Nc1ccc(C)c(S(=O)(=O)N2CCOCC2)c1 (stereo not given) the results were NPYLR7 ag -3.7 and NPYLR7 ag max-min -6.4.
Fc1ccc(N2CCCN(Cc3cnc(-c4ccco4)nc3)CC2)cc1 was read as NPYLR7 ag 1.6 and NPYLR7 ag max-min 1.2.
`CCN1CCCC1CNC(=O)C1CSC(c2cccc(Br)c2)N1C(=O)OC(C)(C)C` (stereo not given) gave NPYLR7 ag -6.3 and NPYLR7 ag max-min -9.9.
`Cc1ccc(C(=O)N=Nc2c(O)[nH]c3ccccc23)cn1` gave NPYLR7 ag 13.5 and NPYLR7 ag max-min 14.7.
Screening CCC(C)N(Cc1ccsc1)Cc1csc(C(C)=O)c1 (stereo not given) returned NPYLR7 ag 2.8 and NPYLR7 ag max-min 17.7.
`O=C(COc1ccccc1)Nc1ccc(C2SCC(=O)N2c2ccc3c(c2)CCC3)cc1` (stereo not given) gave NPYLR7 ag 21.6 and NPYLR7 ag max-min 18.8.
For CCOC(=O)C1(NC(=O)CCSC)CCCCC1 the results were NPYLR7 ag -6.2 and NPYLR7 ag max-min -4.9.
`COc1ccc(OC)c(CN(CCc2c[nH]c3ccccc23)Cc2nc(C(=O)NCC3CC3)co2)c1` gave NPYLR7 ag 30.5 and NPYLR7 ag max-min 27.3.
`Cn1cc(C(=O)N2CCN(C(=O)CCC3CCCC3)CC2)c2nn(-c3ccccc3)c(=O)c-2c1` gave NPYLR7 ag -0.3 and NPYLR7 ag max-min -1.1.
CC1(/[N+]([O-])=C/c2ccccc2C(F)(F)F)CCCCC1=O (stereo not given) was read as NPYLR7 ag 14.8 and NPYLR7 ag max-min 1.2.
For Cc1c(C)n2c3c(=O)n(Cc4ccccc4)c(=O)n(C)c3nc2n1C the results were NPYLR7 ag -4.2 and NPYLR7 ag max-min -5.1.
NS(=O)(=O)c1ccc(CCNC(=O)C2CC=CCC2C(=O)N2CCc3ccccc3C2)cc1 (stereo not given) was read as NPYLR7 ag 6.1 and NPYLR7 ag max-min 1.2.
For CCSc1nc2ccc(NC(=O)CSc3nnc(N)s3)cc2s1 the results were NPYLR7 ag -5.5 and NPYLR7 ag max-min -10.5.
For CN(Cc1nc(-c2cccnc2)no1)C(=O)CC12CC3CC(CC(C3)C1)C2 the results were NPYLR7 ag 7.1 and NPYLR7 ag max-min 1.9.
For CCOCCOc1nc(-c2cccc(F)c2)n(-c2ccc(NC(=O)COC)cc2)n1 the results were NPYLR7 ag 4.2 and NPYLR7 ag max-min 4.5.
For Cn1nc(C(C)(C)C)cc1NC(=O)c1ccc(C#N)cc1 the results were NPYLR7 ag -3.8 and NPYLR7 ag max-min -6.3.
For CCCSc1nccc(=O)[nH]1 the results were NPYLR7 ag 3.9 and NPYLR7 ag max-min 3.8.
CCc1nc2c(OCCOC)cccn2c1N(C)C(=O)c1cccc(OC)c1 was read as NPYLR7 ag -13.9 and NPYLR7 ag max-min -16.8.
Screening O=C(O)c1cccc(COCC(F)(F)C(F)F)c1 returned NPYLR7 ag 11.0 and NPYLR7 ag max-min 6.3.
For CC(C)(C)c1ccc(C(=O)Nn2cnc3c(cnn3-c3ccccc3)c2=O)cc1 the results were NPYLR7 ag -0.2 and NPYLR7 ag max-min -1.8.
`Cc1ccccc1Cn1ccnc1CN(CC1CC1)C(=O)c1ccccc1F` gave NPYLR7 ag -8.0 and NPYLR7 ag max-min 7.0.
`COc1ccc(NC(=O)CSc2nc(C)cc(C(F)(F)F)c2C#N)cc1` gave NPYLR7 ag -10.4 and NPYLR7 ag max-min -16.7.
CN(Cc1ccccc1)C(=O)c1ccc(Nc2nc(C(N)c3ccccc3Cl)cs2)nc1 (stereo not given) was read as NPYLR7 ag -4.4 and NPYLR7 ag max-min -9.6.
Screening CCn1nc(C(=O)N2CC(=O)Nc3ccccc32)cc1C returned NPYLR7 ag 0.7 and NPYLR7 ag max-min -0.1.
CC(O)CN(CCN(CC(C)O)CC(C)O)CC(C)O (stereo not given) was read as NPYLR7 ag -12.6 and NPYLR7 ag max-min -7.3.
Screening Cc1cccc(NC(C)C(=O)Nc2sccc2C#N)c1C (stereo not given) returned NPYLR7 ag -0.7 and NPYLR7 ag max-min -1.6.
Screening CCN(CC)[P+](N)(c1nc2ccccc2n1C)N(CC)CC returned NPYLR7 ag 1.8 and NPYLR7 ag max-min 2.3.
`COCc1nc(C)cc(NC(c2ccccc2)C2CCOCC2)n1` (stereo not given) gave NPYLR7 ag -1.3 and NPYLR7 ag max-min -1.4.
For O=C1OC(/C=C/c2ccc(Cl)cc2)=NC/1=C/c1cccc([N+](=O)[O-])c1 the results were NPYLR7 ag -7.2 and NPYLR7 ag max-min -10.5.
CC1CCN(C(=O)Cc2csc(NC(=O)NC3CCCCC3)n2)CC1 was read as NPYLR7 ag -5.1 and NPYLR7 ag max-min -7.3.
Screening COC(=O)C1=C(C)NC(C)=C(C(=O)OC)C1C(=O)OCC(=O)NC(C)(C)C returned NPYLR7 ag 4.4 and NPYLR7 ag max-min 6.8.
Screening Cc1ccc2oc(C(=O)NCC3(N(C)C)CCOCC3)cc2c1 returned NPYLR7 ag 2.7 and NPYLR7 ag max-min 1.6.
For O=C(c1cncc(N2CCOC(c3ccc(F)cc3)C2)n1)N1CCCCC1 (stereo not given) the results were NPYLR7 ag -9.9 and NPYLR7 ag max-min -12.0.
O=c1ccc(-c2ccco2)nn1CCNS(=O)(=O)c1ccccc1F was read as NPYLR7 ag -1.4 and NPYLR7 ag max-min -4.1.
Screening O=S(=O)(c1ccc(Cl)cc1)N1CCNCC1 returned NPYLR7 ag -2.8 and NPYLR7 ag max-min -1.9.
CC1=C(C(=O)Nc2ccc(C)cc2)C(c2ccccc2F)NC(=O)N1 (stereo not given) was read as NPYLR7 ag -0.2 and NPYLR7 ag max-min -2.5.
`CCCCNC(=O)CN1CCN(CN2C(=O)NC3(CCC(C)CC3)C2=O)CC1` (stereo not given) gave NPYLR7 ag 13.7 and NPYLR7 ag max-min 9.3.
For O=C(CNCC(c1ccccn1)N1CCOCC1)Nc1cnccn1 (stereo not given) the results were NPYLR7 ag -5.6 and NPYLR7 ag max-min -9.8.
C=CCOC(C)C(=O)NC1(C(=O)OCC)CCc2ccccc21 (stereo not given) was read as NPYLR7 ag -15.9 and NPYLR7 ag max-min -16.9.
For Cn1c(=O)c2c(ncn2CC(=O)Nc2sc3c(c2C#N)CCC3)n(C)c1=O the results were NPYLR7 ag 13.3 and NPYLR7 ag max-min 16.2.
Screening Cc1ccc(C(C)C)cc1OS(=O)(=O)c1ccc2c(c1)oc(=O)n2C returned NPYLR7 ag 5.7 and NPYLR7 ag max-min 4.5.
`O=C(CCc1ccccc1)Nc1cc(-c2ccccc2)nn1-c1ccc(Br)cc1` gave NPYLR7 ag 9.5 and NPYLR7 ag max-min -1.3.
For CN(C)CCN(C)CC1(c2ccnc(-c3ccccc3Cl)c2)CC1 the results were NPYLR7 ag 1.4 and NPYLR7 ag max-min -1.2.
`COc1ccc(-c2nc3ccccn3c2CN2CCNC(C(=O)O)C2)cc1` (stereo not given) gave NPYLR7 ag 8.7 and NPYLR7 ag max-min 6.3.
Screening CCC(=O)NCC[C@@H]1CCc2ccc3c(c21)CCO3 returned NPYLR7 ag 2.3 and NPYLR7 ag max-min -13.2.

Looked up by structure from above, 4 records:
Screening Cc1ccc2oc(C(=O)NCC3(N(C)C)CCOCC3)cc2c1 returned NPYLR7 ag 2.7 and NPYLR7 ag max-min 1.6.
For Cn1c(=O)c2c(ncn2CC(=O)Nc2sc3c(c2C#N)CCC3)n(C)c1=O the results were NPYLR7 ag 13.3 and NPYLR7 ag max-min 16.2.
Screening Cc1ccc(C(C)C)cc1OS(=O)(=O)c1ccc2c(c1)oc(=O)n2C returned NPYLR7 ag 5.7 and NPYLR7 ag max-min 4.5.
Screening CCC(=O)NCC[C@@H]1CCc2ccc3c(c21)CCO3 returned NPYLR7 ag 2.3 and NPYLR7 ag max-min -13.2.

(list continues)
`Cc1cccc(Cl)c1S(=O)(=O)N1CC(c2ccccn2)C1` gave NPYLR7 ag -1.0 and NPYLR7 ag max-min 11.7.
`O=C(c1ccc(F)cc1)N(CCN1CCOCC1)CC(=O)N1CCc2sccc2C1COc1ccc(F)cc1` (stereo not given) gave NPYLR7 ag -4.2 and NPYLR7 ag max-min -0.3.
`COc1ccc(NC(=O)CNC(=O)CN(C(=O)c2ccc(C)cc2)C2CC2)cc1` gave NPYLR7 ag -2.3 and NPYLR7 ag max-min 9.0.
For COC(=O)c1nnn(-c2nc(OC)nc(N(C)C)n2)c1C the results were NPYLR7 ag 1.6 and NPYLR7 ag max-min 1.2.
Screening C=c1occc1=C1NN=C(SCc2cc(C(=O)OC)c(C)o2)O1 returned NPYLR7 ag 12.5 and NPYLR7 ag max-min 14.3.
`O=C(NCCn1ncc2c(=O)n(Cc3ccccc3F)cnc21)c1cc(-c2ccco2)on1` gave NPYLR7 ag 0.4 and NPYLR7 ag max-min -3.7.
For CC1=CC[C@@H]2CN(Cc3ccc(-c4ccn[nH]4)o3)C[C@@H]2C1 the results were NPYLR7 ag 8.1 and NPYLR7 ag max-min 5.8.
O=C(Nc1ccc2[nH]c(=O)[nH]c2c1)c1ccc2c(c1)OCCO2 was read as NPYLR7 ag -0.5 and NPYLR7 ag max-min -3.4.
`O=S(=O)(N1CCCC1)N1CCC2(CCOCC2)CC1` gave NPYLR7 ag 5.1 and NPYLR7 ag max-min 0.0.
Screening CC(C)c1csc(C2CC(=O)NCc3nc4ccccn4c32)n1 (stereo not given) returned NPYLR7 ag 7.0 and NPYLR7 ag max-min 4.5.
Screening Cc1ccc(C(=O)OCC(=O)c2cccs2)c(O)c1 returned NPYLR7 ag 2.9 and NPYLR7 ag max-min -0.8.
For COc1ccc(NC(=O)C(=O)NCC(c2cccc3ccccc23)N2CCCC2)cc1Cl (stereo not given) the results were NPYLR7 ag -0.5 and NPYLR7 ag max-min 3.8.
Screening O=C(Cc1cn2ccsc2n1)NC12CC3CC(CC(C3)C1)C2 returned NPYLR7 ag 4.8 and NPYLR7 ag max-min 11.9.
`CCCCOCCOCC(=O)N1CCN(Cc2ccc(-c3noc(-c4ccccc4)n3)cc2)CC1` gave NPYLR7 ag -9.9 and NPYLR7 ag max-min -15.1.
For COc1cc(C)c2c(=O)c(-c3nc(C)cs3)coc2c1 the results were NPYLR7 ag -19.8 and NPYLR7 ag max-min -23.1.

Arranged by length of the SMILES (low to high): some entries from above.
For COC(=O)c1nnn(-c2nc(OC)nc(N(C)C)n2)c1C the results were NPYLR7 ag 1.6 and NPYLR7 ag max-min 1.2.
`Cc1cccc(Cl)c1S(=O)(=O)N1CC(c2ccccn2)C1` gave NPYLR7 ag -1.0 and NPYLR7 ag max-min 11.7.
`O=C(NCCn1ncc2c(=O)n(Cc3ccccc3F)cnc21)c1cc(-c2ccco2)on1` gave NPYLR7 ag 0.4 and NPYLR7 ag max-min -3.7.

(continued)
`S=c1[nH]nc(-c2ccccc2)n1-c1ccc(Cl)cc1` gave NPYLR7 ag -2.5 and NPYLR7 ag max-min -4.4.
O=c1c(Cl)c(NC2CCCC2)cnn1Cc1ccccc1 was read as NPYLR7 ag 6.6 and NPYLR7 ag max-min 2.4.
For Cc1cc(C)n(CCCC(=O)N2CCOC3(CNCCOC3)C2)n1 (stereo not given) the results were NPYLR7 ag 0.9 and NPYLR7 ag max-min 0.0.
CCCCCC(=O)Nc1c(-c2ccccc2)nc2cc(C)ccn12 was read as NPYLR7 ag -6.9 and NPYLR7 ag max-min -6.0.
